Screening data: PubChem, National Center for Advancing Translational Sciences (NCATS)
HTT prom inh = inhibits huntingtin promoter activity. HEK293 HTT promoter firefly luciferase reporter (activity 0% = vehicle and -100% = no light), 24 h. Potency, µM (highest dose often 57.5 µM), for inactives: at the highest dose activity change, negative = inhibition, most hits filed as inhibitors. hit rate 0.93% among 48,000; active = well fitted inhibition curve with a large enough effect; inconclusive = small, poorly fitted or top-dose-only effect; inactive = no such curve, though single readings can be large or run the other way; also: nearly all actives have a fitted effect of over 50% in size
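Firefly luciferase signal from promoter-reporter HEK293 cells was scaled between vehicle (0%) and zero RLU (-100%). Compounds were tested at final concentrations of up to 57.5 uM over 24 h at 37 degrees C. PTC124 at 50 uM final served as control inhibitor.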
PMP22 txn prim = PMP22 gene transcription modulation. S16 Pmp22-F2sN Schwann cells (luciferase reporters placed in the Pmp22 gene), FLuc/NLuc coincidence luminescence, 24 h. Potency, µM (series often up to 57.5 µM), for inactives: top-dose activity change, negative = inhibition, actives largely listed as inhibitors. hit rate 2% among 43,000; active = clear falling dose curves in both reporters; inconclusive = both reporters move, but less clearly or upward; inactive = either reporter flat; the % is the NLuc reporter signal; also: % is scaled to controls: 0 for no effect and ±100 for the full control effect; some results filed as inactive show a strong effect at the top dose
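Luminescent read-out of sequential FLuc and NLuc signals from a reporter embedded in the Pmp22 3' UTR of S16 Schwann cells, taken after 24 h compound exposure at 37C; compounds reducing both signals score as inhibitors of expression.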
The depositor's hits bear a star; ? = inconclusive; . = not tested or not shown; [ ] = remark or other dose. Potency is read from the fitted curve at half-maximal effect.

SMILES	HTT prom inh	PMP22 txn prim
COc1ccc(NC(=O)N2CCOc3ccc(Cl)cc32)cc1	15.3%	-11.8%
COc1ccc(-c2oc3ncn4nc(-c5cccc(C)c5)nc4c3c2-c2ccc(OC)cc2)cc1	-10.2%	-7.5%
CCc1oc2ccccc2c1C(=O)c1cc(I)c(O)c(I)c1	-11.8%	.
CCOc1ccc(NC(=O)Cn2c(=O)n(CCc3ccccc3)c(=O)c3c4c(sc32)CN(C(C)=O)CC4)cc1	-1.7%	?
CCN1C(C(=O)c2ccccc2)=C(OC(=O)COc2ccc(OC)cc2)c2ccccc2S1(=O)=O	?	-6.6%
CCOc1ccc2c(c1)c(=O)c(S(=O)(=O)c1ccc(C)cc1)cn2Cc1ccccc1Cl	-22.6%	-8.2%
CCCN(C(=O)Cn1c(=O)oc2cc(Cl)ccc21)c1ccc(C(C)C)cc1	?	-16.5%
COc1ccc(NC(=O)c2c(-c3ccccc3)c(-c3ccccc3)nn(C)c2=O)c(OC)c1	-12.4%	1.3%
CCOC(=O)c1nnn(CC(=O)NC(=O)Nc2ccc(F)cc2)c1C(=O)OCC	-15.9%	-2.4%
COC(=O)c1sc2cccc(F)c2c1S(=O)(=O)N1CCN(c2ccccc2OC)CC1	?	?
O=S(=O)(NCc1ccc(F)cc1)c1ccc2[nH]c3c(c2c1)CCCC3	-12.8%	-13.3%
COc1ccc(CNC(=O)Cn2ncc3c([nH]c4ccccc43)c2=O)cc1	-2.1%	2.8%
CN1CCc2cccc3c2[C@H]1Cc1ccc(O)c(O)c1-3	-2.7%	.
CCc1nc(SC)ncc1C(=O)NCc1cccc(Br)c1	-6.0%	0.3%
COc1ccccc1CCNC(=O)C(=O)NCC(c1ccco1)S(=O)(=O)c1ccccc1 (stereo not drawn)	?	?
COc1cccc(Cn2nnc3c(=O)[nH]c(C4CCCN(C(=O)c5ccc(C)cc5)C4)nc32)c1 (stereo not drawn)	?	-26.6%
CCOC(=O)c1ccc(NC(=O)C2CC(=O)N(c3ccc(C(C)C)cc3)C2)cc1 (stereo not drawn)	4.0%	4.9%
COc1ccc(Cl)cc1NC(=O)Cn1ncc2c3ccccc3n(C)c2c1=O	-23.4%	-77.8%
Cc1ccc(CNC(=O)CN2C(=O)COc3ccccc32)cc1	34.4%[activator]	1.2%
CCCOc1ccc(-c2nonc2NC(=O)c2oc3ccc(Cl)cc3c2C)cc1OCCC	-11.9%	-9.1%
CC(C)CN(CCCNC(=O)CN1C(=O)CSc2ccc(S(=O)(=O)N3CCOCC3)cc21)CC(C)C	-14.1%	-1.8%
CN(C(=O)c1ccc2c(c1)N(Cc1ccccc1F)C(=O)c1ccccc1S2(=O)=O)C1CCCCC1	?	?
CCOc1ccc(CN2CCN(c3ncnc4sc5c(c34)CC(C)CC5)CC2)cc1 (stereo not drawn)	?	-20.1%
CCC(=O)N1CCc2cc(CNC(=O)C(CC)c3ccccc3)ccc21 (stereo not drawn)	-14.5%	16.7%
CCN(CC)c1ccc(NC(=O)C2CCCN(S(=O)(=O)c3ccc4c(c3)oc(=O)n4C)C2)c(C)c1 (stereo not drawn)	?	?
CCOC(=O)c1[nH]c2c(c1Cc1ccccc1C)C(=O)CC(c1cc(OC)ccc1OC)C2 (stereo not drawn)	?	-8.3%
O=C(CC1C(=O)N(c2ccccc2)C(=O)N1CCc1cccs1)Nc1ccc(Cl)cc1 (stereo not drawn)	?	-15.4%
CCOC(=O)c1cccc(NC(=O)CCS(=O)(=O)c2ccc3c(c2)CCN3C(=O)CC)c1	-4.6%	?
CCN1C(=O)c2ccccc2S(=O)c2ccc(C(=O)N3CCN(c4cccc(C)c4)C(C)C3)cc21 (stereo not drawn)	?	?
CCOc1ccccc1CNC(=O)CCCn1ccc2cc(S(=O)(=O)N3CCCC3)ccc21	?	?
COc1ccc(CNC(=O)C(=O)NCC(c2cccs2)S(=O)(=O)c2cccs2)cc1 (stereo not drawn)	-32.6%	-2.0%
NS(=O)(=O)c1ccc(Cl)c(S(N)(=O)=O)c1	-3.0%	.
COc1ccc(C(=O)Nc2ccccc2C(=O)OCc2cc(=O)n3nc(C4CC4)sc3n2)cc1	-1.6%	9.3%
COc1ccc(-n2c(=O)c3c4c(sc3n(Cc3cc(C)ccc3C)c2=O)CN(C(C)=O)CC4)c(OC)c1	?	?
CCCCNC(=O)C(CC)Sc1nnc(-c2ccc(F)cc2)c(-c2ccc(F)cc2)n1 (stereo not drawn)	-18.7%	-22.6%
COc1ccc(C)cc1NC(=O)c1cc2c(=O)n3cccc(C)c3nc2s1	1.6%	-15.6%
Clc1ccc(-c2noc3ncnc(NC4CCCCC4)c23)cc1	?	?
CN(C)c1ccc(CNC(=O)c2ccc3nc(CCc4ccccc4)oc3c2)cc1	4.6%	?
Cc1c(C(=O)NCc2cccc(Cl)c2)sc2nc3n(c(=O)c12)CCC3	6.4%	-21.2%
Cc1ccc2c(=O)c(C(=O)c3ccccc3)cn(CC(=O)Nc3ccc(C)c(Cl)c3)c2n1	-1.9%	?
COC(=O)c1ccc(NC(=O)Cc2coc3cc(C)ccc23)cc1	?	-31.1%
O=C(NCCS(=O)(=O)N1CCN(c2ccccc2)CC1)C1CC(=O)N(c2ccc(F)cc2)C1 (stereo not drawn)	-8.0%	-1.2%
COc1cc(NC(=O)c2cn(C3CCCC3)c(=O)c3c2c2ccccc2n3C)cc(OC)c1OC	?	?
Cn1c(SCc2ccc(F)cc2)nc2ccc(C(=O)NCc3ccc(Cl)cc3)cc21	?	?
Cc1ccc(C)c(S(=O)(=O)n2nc(C)c(S(=O)(=O)N3CCC(C)CC3)c2C)c1	-3.8%	0.0%

An excerpt from above in order of number of heavy atoms, ascending.
SMILES	HTT prom inh	PMP22 txn prim
Clc1ccc(-c2noc3ncnc(NC4CCCCC4)c23)cc1	?	?
COC(=O)c1ccc(NC(=O)Cc2coc3cc(C)ccc23)cc1	?	-31.1%
Cc1ccc(C)c(S(=O)(=O)n2nc(C)c(S(=O)(=O)N3CCC(C)CC3)c2C)c1	-3.8%	0.0%
CN(C)c1ccc(CNC(=O)c2ccc3nc(CCc4ccccc4)oc3c2)cc1	4.6%	?
O=C(NCCS(=O)(=O)N1CCN(c2ccccc2)CC1)C1CC(=O)N(c2ccc(F)cc2)C1 (stereo not drawn)	-8.0%	-1.2%
COc1cc(NC(=O)c2cn(C3CCCC3)c(=O)c3c2c2ccccc2n3C)cc(OC)c1OC	?	?

Other entries follow.
SMILES	HTT prom inh	PMP22 txn prim
Cc1ccc(CSCCC(=O)N2CCN(c3cc(C)ccc3C)CC2)cc1	?	-30.6%
COCCCN1C(=O)c2[nH]nc(-c3ccccc3O)c2C1c1ccc(OC)cc1 (stereo not drawn)	?	?
Cn1c(CNC(=O)CSc2n[nH]c(-c3ccccc3)n2)nc2ccccc21	3.9%	6.2%
CC(=O)N1c2ccccc2C(=O)C1N1CCN(c2cccc(Cl)c2)CC1 (stereo not drawn)	?	1.0%
CC(NC(=O)c1cccc(NC(=O)c2nsc3ccccc23)c1)c1ccccc1 (stereo not drawn)	0.0%	?
Cc1ccccc1CNC(=O)c1ccc(CN2CC(=O)N3CCCCC3C2=O)cc1 (stereo not drawn)	-19.2%	-16.8%
Cc1noc(C)c1S(=O)(=O)N(CC(=O)NCc1ccccc1)c1ccc(C(C)C)cc1	-20.2%	-19.3%
COc1ccc2c(c1)c1c(c(=O)n(-c3cccc(C)c3)c(=O)n1CC(=O)NCC1CCCO1)n2C (stereo not drawn)	-7.1%	?
N#CC1=C2SCN(C3CCCCC3)CN2C(=O)CC1c1ccc(Br)cc1 (stereo not drawn)	-22.0%	-35.3%
Cc1ccc(Cl)cc1NC(=O)CCn1cnc2ccccc2c1=O	-19.5%	7.3%
COc1ccc(Nc2ncc(C(=O)N3CCN(c4ccccc4OC)CC3)c3ccccc23)cc1	?	?
CCS(=O)(=O)c1ncc(Cl)c(C(=O)NCc2ccc(OC)cc2)n1	?	6.48µM*
O=C(c1ccccc1Cl)N1CCC(c2nc3ccccc3s2)CC1	?	-35.6%
CCC1CCCCN1CCCNC(=O)c1c(O)nc2c(C)cccn2c1=O (stereo not drawn)	-5.0%	0.2%
CCc1ccc(Cn2nnc3c(=O)[nH]c(C4CCCN(C(=O)c5cccc(Cl)c5)C4)nc32)cc1 (stereo not drawn)	-19.6%	-12.8%
O=C(NCCc1ccc(Cl)cc1)C1CCN(S(=O)(=O)c2ccc3[nH]ccc3c2)CC1	-28.4%	?
Cc1ccccc1OC(=O)c1cc(-c2ccc3c(c2)OCCO3)on1	-5.6%	2.7%
CCOc1ccc(CN(CCc2ccc3c(c2)OCO3)Cc2cc(OC)cc(OC)c2)cc1	-28.5%	?
CCCSCCCNC(=O)c1sc2nc(C)cc(C)c2c1-n1cccc1	-7.2%	4.8%
O=C(CSc1ccccc1)NCc1ccc2c(c1)CCN2C(=O)c1ccc(Cl)cc1	-20.3%	10.4%
Cc1ccccc1Nc1nc(N)c(C(=O)c2ccccc2Cl)s1	-27.8%	?
Cc1ccc(NC(=O)c2sc(-n3nc(C)c(Cc4ccc5c(c4)OCO5)c3C)nc2C)cc1Cl	-0.7%	9.3%
Cc1oc2ncn(C)c(=O)c2c1C(=O)N(C)c1ccccc1F	0.0%	-2.7%
Cc1cc2[nH]c(=O)c(=O)[nH]c2cc1S(=O)(=O)NCc1ccc(F)cc1	-0.5%	-0.4%
O=C(NCCCc1ccccc1)c1nn(-c2ccccc2)nc1CO	?	-7.0%
CSc1nc2c([nH]c3ccccc32)c(=O)n1-c1ccc(F)cc1	-13.1%	-20.8%
COc1cc(OC)c(NC(=O)N2CCC(CN3CCOCC3)CC2)cc1Cl	-8.1%	50.3%
C[C@]12C=CC(=O)C=C1CC[C@@H]1[C@@H]2[C@@H](O)C[C@@]2(C)[C@@H]1CC[C@]2(O)C(=O)CO	-0.5%	.
COc1cccc(NC(=O)Cn2c(=O)ccc3cc(S(=O)(=O)N4CCC(C)CC4)ccc32)c1	?	-2.4%
O=c1cc(-c2ccc(F)cc2)nc(SCc2nc(-c3cccc(Cl)c3)no2)[nH]1	1.7%	-0.8%

Part of the list above, in CSV form:
Structure,HTT prom inh,PMP22 txn prim
Cc1ccccc1Nc1nc(N)c(C(=O)c2ccccc2Cl)s1,-27.8%,?
Cc1ccc(NC(=O)c2sc(-n3nc(C)c(Cc4ccc5c(c4)OCO5)c3C)nc2C)cc1Cl,-0.7%,9.3%
Cc1oc2ncn(C)c(=O)c2c1C(=O)N(C)c1ccccc1F,0.0%,-2.7%

The list goes on:
SMILES	HTT prom inh	PMP22 txn prim
CCOC(=O)c1cnc2c(C)cc(C)cc2c1Nc1ccc(N2CCOCC2)cc1	-9.9%	?
Cn1cnc(S(=O)(=O)N2CCCC(C(=O)NCc3ccc(F)cc3)C2)c1 (stereo not drawn)	-14.5%	-12.1%
COc1ccccc1NCc1nnc2n1CCCCC2	-4.7%	-11.6%
CC(=O)c1cccc(-n2c(CCC(=O)O)ccc2-c2ccccc2)c1	-1.8%	-13.7%
CSc1cccc(NC(=O)CN(C)S(=O)(=O)c2ccc3c(c2)CCCN3C(C)=O)c1	?	-73.1%
COc1ccc(-c2noc(-c3ccc(NCc4ccc(C)cc4)c([N+](=O)[O-])c3)n2)cc1OC	-3.0%	-5.0%
Cn1ccc2c(OCC(=O)Nc3ccc(OC(F)(F)F)cc3)cccc2c1=O	20µM*	?
CCCSc1ncc(Cl)c(C(=O)N2CCN(c3cccc(Cl)c3)CC2)n1	?	-20.7%
Nc1ncc(S(=O)(=O)Nc2ccc(F)cc2F)cn1	-7.6%	1.6%
O=C(Nc1nnc(S(=O)(=O)N2CCOCC2)s1)c1ccccc1F	23.7%	-5.7%
Cc1cccc(C)c1Nc1c(-c2ccccc2F)nc2cccc(C)n12	?	-11.3%
CCCN1CCN(CCCNC(=O)c2ccc3c(c2)sc2nc(-c4ccc(OCC)cc4)cn23)CC1	-4.3%	?
Cc1cc(C)c(NC(=O)C(=O)NCC(c2cccnc2)N2CCN(Cc3ccccc3)CC2)c(C)c1 (stereo not drawn)	-13.8%	-25.6%
COc1cccc(C(=O)Nc2nnc(S(=O)(=O)N3CCCC3)s2)c1	-6.7%	10.2%
CC1CCCN(C(=O)c2cc3ccc4cccnc4c3[nH]2)C1 (stereo not drawn)	?	-14.6%
CCOc1ccc(-n2c(SCC(N)=O)nc3c(oc4ccccc43)c2=O)cc1	?	7.3%
CCS(=O)(=O)c1ncc(Cl)c(C(=O)N(Cc2ccccc2)Cc2ccco2)n1	35.5µM*	3.18µM*
CCOC(=O)c1cc(OC(=O)c2ccccc2C)n(-c2ccccc2)n1	-4.6%	-11.6%
COc1ccccc1NC(=O)C1=C(C)Nc2nc(SCc3ccccc3)nn2C1c1ccccn1 (stereo not drawn)	-11.0%	-28.3%
O=c1n(Cc2cccc(C(F)(F)F)c2)c2ccccc2c2nc(-c3ccccc3)nn12	-9.9%	-22.2%
CCOC(=O)c1cn(CC(=O)Nc2cccc(Cl)c2C)nn1	-18.6%	-21.7%
Cc1ccc(CNc2nc3ccc(Cl)cc3n3nnnc23)cc1	9.1%	-4.3%
CCN1C(=O)C2(c3ccccc31)c1c(oc3ccc(C)cc3c1=O)C(=O)N2CCCOC(C)C (stereo not drawn)	-11.0%	-2.8%
COc1ccc(-c2noc(C3CC(=O)N(c4ccccc4)C3)n2)c(OC)c1 (stereo not drawn)	-1.2%	-0.6%
